Assay outcomes: PubChem BioAssay, National Center for Advancing Translational Sciences (NCATS)
Vaccinia mCherry: inhibitors of vaccinia virus infection (mCherry reporter signal). Vaccinia virus mCherry reporter infection, fluorescence; about a quarter of the inactives have no number. Potency, µM (top dose mostly 36.5 µM), for the others: at the highest dose activity change, negative = inhibition, actives largely listed as inhibitors. 0.63% of 310,000 active. AID 720579; active = well fitted inhibition curve with a large enough effect; inconclusive = small, poorly fitted or top-dose-only effect; inactive = no such curve, though single readings can be large or run the other way; tested in A549 cells; further: nearly all actives have a fitted effect of over 35% in size; inactives centre near -10
VACV Venus inh: inhibitors of vaccinia virus (Venus reporter); Vaccinia virus Venus reporter expression, fluorescence; Potency, µM (highest dose often 36.5 µM), for inactives: top-dose activity change, negative = inhibition, actives largely listed as inhibitors; 0.46% of 330,000 active; AID 720580; active means well fitted inhibition curve with a large enough effect; inconclusive means small, poorly fitted or top-dose-only effect; inactive means no such curve, though single readings can be large or run the other way; tested in A549 cells; further: nearly all actives have a fitted effect of over 30% in size; inactives centre near -10
* = called active by the depositor; i = inactive; u = inconclusive; x = not tested or not shown; & = joins results of further samples; [ ] = another dose, or the depositor's remark. On the % scale 0 is the no-effect control and ±100 the full control effect; potency means the concentration at half of the fitted maximal effect.

Below each SMILES – Vaccinia mCherry	VACV Venus inh
- CCOC(=O)c1c(C)[nH]c(C(=O)OCC(=O)N(C)C2CCS(=O)(=O)C2)c1C (stereo not drawn)
    -10%	-8%
- C=C(C)COc1ccc(-c2ncncc2-c2ccc(OC)cc2)c(O)c1
    -12%	-26%
- CCOc1cccc(OCCCCn2ccnc2)c1
    x	-3%
- O=C(CN1CCOCC1)NCCNS(=O)(=O)c1ccccc1
    i	-9%
- COC(=O)C1C(C(=O)OC)C1(c1ccccc1)c1ccccc1 (stereo not drawn)
    -18%	-11%
- N#CC1=C2SC=C(c3ccc(Br)cc3)N2CCCC1=O
    -10%	-25%
- CC(C)C[C@H]1CNC(=S)N1CC1CCN(CCCC2CCCC2)CC1
    -5%	-18%
- COc1ccc(N(C(=O)CNC(=O)c2cccs2)C(C(=O)NCC2CCCO2)c2ccc(OC)c(OC)c2)cc1 (stereo not drawn)
    i	-1%
- CCOc1cccc2sc(N(CCCN(C)C)C(=O)c3ccc(S(=O)(=O)N(C)CC4CCCO4)cc3)nc12 (stereo not drawn)
    -4%	-28%
- COc1ccc(C(=O)Nc2nc(OCC(F)(F)F)cnc2/C=C\c2ccccc2)c(OC)c1
    -7%	-9%
- COc1ccccc1CNC(=O)C(NC(=O)Nc1ccccc1)C(C)C (stereo not drawn)
    -6%	3%
- COc1ccc(NC(=O)c2cc(F)c(F)cc2Cl)cc1Cl
    2%	-13%
- CCOC(=O)c1cc(OC(C)=O)c2ccc(OC)c(OC)c2c1
    i	-14%
- CCOC(=O)c1noc2ncn(CC(=O)Nc3ccc(OC)c(Cl)c3)c(=O)c12
    -6%	-1%
- C[C@@H]1CN([C@H](C)CO)C(=O)c2cc(NC(=O)Nc3ccc(C(F)(F)F)cc3)ccc2O[C@H]1CN(C)C(=O)Nc1ccc(F)cc1
    u	u

Three entries already listed, ordered by molecular weight, falling.
Below each SMILES – Vaccinia mCherry	VACV Venus inh
- CCOC(=O)c1c(C)[nH]c(C(=O)OCC(=O)N(C)C2CCS(=O)(=O)C2)c1C (stereo not drawn)
    -10%	-8%
- COc1ccccc1CNC(=O)C(NC(=O)Nc1ccccc1)C(C)C (stereo not drawn)
    -6%	3%
- COc1ccc(NC(=O)c2cc(F)c(F)cc2Cl)cc1Cl
    2%	-13%

Other results:
Below each SMILES – Vaccinia mCherry	VACV Venus inh
- CCOc1ccccc1CNCCCSc1nnnn1C
    0%	-8%
- CCOC(=O)c1cn2nc(OP(=S)(OCC)OCC)cc2nc1C
    13%	0%
- C=CCN(Cc1cccs1)C(=O)COc1ccc2c(c1)OCO2
    -6%	-6%
- COc1ccc(CCNC(=O)C2CCC(CNc3c(N4CCCC4)c(=O)c3=O)CC2)cc1OC (stereo not drawn)
    -5%	3%
- COc1ccc(C(NC(=O)/C=C/c2ccco2)c2ccc(OC)c(OC)c2)cc1OC
    i	0%
- CCN1CCSc2ccc(C(=O)NC(C)c3ccccc3)cc21 (stereo not drawn)
    i	-2%
- O=C(Nc1ccc(Oc2ccc(NC(=O)Nc3ccccc3Cl)cc2)cc1)Nc1ccccc1Cl
    -14%	-16%
- CC(C)CCC(C)NC(=O)CN1C(=O)NC(C)(c2ccc3ccccc3c2)C1=O (stereo not drawn)
    -15%	-14%
- CC1(C(=O)Nc2ccc(F)c(Cl)c2)Cc2c(-c3ccccc3)ccnc2O1 (stereo not drawn)
    36%[activator]	1%
- CCCCC(=O)c1ccc(OC(=O)c2ccc([N+](=O)[O-])cc2)cc1
    -1%	0%
- CCCCS(=O)(=O)NC(=O)C1(C)CCN1C(=O)C/C=C/c1ccccc1 (stereo not drawn)
    -4%	5%
- CCN(CC)S(=O)(=O)c1ccc(Cl)c(NC(=O)COC(=O)/C=C/c2ccc(O)c(OC)c2)c1
    -29%	-15%
- C/C(CC1CC(COCC(C)C)OC1=O)=N\Nc1nc(-c2ccccc2)cs1 (stereo not drawn)
    -13%	-2%
- Cc1nc2sccn2c(=O)c1S(=O)(=O)Nc1ccc(N2CCN(C(=O)C(C)C)CC2)cc1
    -26%&-13%	-10%&-11%
- COc1cccc(NC(=O)Cc2c(C(=O)O)[nH]c3ccccc23)c1
    u	-1%
- c1coc(Cn2nnnc2CN2CCN(C3CCCC3)CC2)c1
    i	-4%
- CN1OC[C@@H]2CN(C(=O)Nc3ccccc3)[C@H](c3ccc(N4CCCCC4)cc3)C[C@@H]21
    8%	-5%
- COc1ccccc1-c1cnc(C(O)c2ccc(F)c(C)c2)[nH]1 (stereo not drawn)
    -14%	-14%
- CCCCN=C1NN=C(c2ccc3c(c2)OCCO3)CS1
    -15%	-14%
- COc1ccc(CC(=O)Nc2nnc(SCc3ccccc3)s2)cc1S(=O)(=O)N1CCOCC1
    x	u
- Cc1ccc(C(=O)Nc2nc(-c3ccc(F)cc3)cs2)o1
    8%	3%
- CCc1ccc(OCC(=O)O/N=C(\N)c2ccncc2)cc1
    -17%	-14%
- O=C1NCN(c2ccccc2)C12CCN(C(c1ccnc3ccccc13)c1nnnn1C1CCCCC1)CC2 (stereo not drawn)
    29%	0%
- COc1cc(NC(=O)CN2CCN(c3ccccc3)CC2)c(C)cc1[N+](=O)[O-]
    -3%	-10%
- Cc1cc(-c2c(C(=O)N3CCOCC3)c(C)nn2-c2cccc(C(F)(F)F)c2)no1
    -5%	-14%
- CCC1(C)CC(=O)N(c2ccc(C(=O)O)c(O)c2)C1=O (stereo not drawn)
    x	-13%
- COc1ccc(/C=N/NC(=O)c2cccc(Br)c2)cc1COc1ccccn1
    -16%[7.34 µM]	-4%[7.34 µM]
- COc1ccc(-n2c(=S)[nH]c3cc(C(=O)Nc4cc(OC)c(OC)c(OC)c4)ccc3c2=O)c(OC)c1
    -1%	-2%
- COc1ccc(NC(=O)C2CC(=O)N=C(N)S2)cc1 (stereo not drawn)
    4%	6%
- O=C(CNC(=O)c1cccs1)OCc1c(F)cccc1Cl
    21%	4%

Overlap with the part before: 4 entries; new compounds follow.
Below each SMILES – Vaccinia mCherry	VACV Venus inh
- COc1ccc(/C=N/NC(=O)c2cccc(Br)c2)cc1COc1ccccn1
    -16%[7.34 µM]	-4%[7.34 µM]
- COc1ccc(-n2c(=S)[nH]c3cc(C(=O)Nc4cc(OC)c(OC)c(OC)c4)ccc3c2=O)c(OC)c1
    -1%	-2%
- COc1ccc(NC(=O)C2CC(=O)N=C(N)S2)cc1 (stereo not drawn)
    4%	6%
- O=C(CNC(=O)c1cccs1)OCc1c(F)cccc1Cl
    21%	4%
- COc1ccc(-c2oc3ccc(N4CCOCC4)cc3c2/C=C/c2ccc(OC)c(OC)c2)cc1
    u	-16%
- O=C(CSc1nncs1)NC1CCCc2ccccc21 (stereo not drawn)
    -14%	-25%
- Cc1cc2cc(C)c(NCCNC(=O)c3cccs3)nc2cc1C
    i	-17%
- O=C(NCCc1ccc(Cl)cc1)c1ccc(NC2=NC3CS(=O)(=O)CC3S2)cc1 (stereo not drawn)
    i	-7%
- O=C(CC(c1cccs1)N1Cc2ccccc2C1=O)Nc1cccc(F)c1 (stereo not drawn)
    -28%	-22%
- NC(=S)N/N=C/c1ncc(C(F)(F)F)cc1Cl
    1.4µM*	-22%[7.34 µM]
- Cc1cc(/C=C2\C(=N)N3N=C(C(C)C)SC3=NC2=O)c(C)n1Cc1ccccc1
    i	-8%
- Cc1ccc(CNC(=O)c2cc(-c3ccc(C)cc3)nc3n[nH]c(-c4ccc(F)cc4)c23)cc1
    4%	2%
- OC(c1ccccc1)c1nc2ccccc2s1 (stereo not drawn)
    -13%	-14%
- COc1ccc(S(=O)(=O)N(C)CC(=O)Nc2cccc(C(C)=O)c2)cc1
    -16%	-6%
- C=CCNC(=O)c1cc2cccc(OC)c2oc1=O
    3%	4%
- CC1=NN(c2ccc(C(F)(F)F)cn2)C(=O)C1
    -16%	-23%
- COc1ccc(-n2nnc3c(SCC(=O)N4CCCc5ccccc54)ncnc32)cc1
    -2%	-6%
- COc1ccc(-c2cccc(-c3nc4ccc(Cl)cn4c3NC3CCCCC3)c2)cc1
    -5%	-6%
- COc1cc(C2C(C(=O)OCC(C)C)=C(C)N=C3SCCC(=O)N32)ccc1OCc1ccccc1 (stereo not drawn)
    -12%	0%
- Cc1cnc(NC(=O)C(C)N2CCN(C)CC2)s1 (stereo not drawn)
    i	6%
- COc1cc(C(=O)OCC(=O)NC2CCS(=O)(=O)C2)ccc1OCc1c(C)noc1C (stereo not drawn)
    -1%	-12%
- CC(C)CNC(=O)CC(c1ccccc1)c1ccccc1
    -4%	1%
- Cc1cccc(OCc2ccc(-c3nc(C#N)c(NCCN(C)C)o3)o2)c1
    i	-25%
- COc1ccccc1N1CCN(C(=O)CNC(=O)Cn2cnc3sc(C)c(C)c3c2=O)CC1
    -14%	-7%
- O=C(NCc1ccco1)c1cc(-c2ccccc2)nn1CC1CC(c2cccnc2)=NO1 (stereo not drawn)
    -9%	-10%
- Cc1ccc(C(=O)NCC(=O)OCC(=O)NC2CCCCCCC2)cc1
    -13%	3%
- CC(=O)N1CC=CC1(C)C(=O)O (stereo not drawn)
    i	-2%
- COc1cccc(C2(O)CCN(C(=O)C3CCC3)CC2)c1
    -11%	3%
- COc1ccc(-c2cn3nc(N4CCCC(C(=O)Nc5cc(Cl)ccc5OC)C4)sc3n2)cc1 (stereo not drawn)
    -6%	-8%
- COc1ccc(C2C(C#N)=C(N)Oc3cc(O)ccc32)cc1OC (stereo not drawn)
    x	-12%
- C[C@@H]1C[C@H]2[C@@H]3C[C@H](F)C4=CC(=O)C=C[C@]4(C)[C@@]3(F)[C@@H](O)C[C@]2(C)[C@@]1(O)C(=O)CO
    -15%	-17%
- CCCCc1n[nH]c(=S)n1Cc1ccc(C)cc1
    i	-9%
- CCCc1nc2ccccc2c(C(=O)N(CC)CC(=O)NCc2cccs2)c1CC
    -7%	-2%
- CCC(c1nnc(SCC(=O)Nc2cccc(S(N)(=O)=O)c2)n1-c1ccc(OC)cc1)N(C)C (stereo not drawn)
    -13%	1%
- COc1ccccc1N1CCN(C(=O)COc2ccccc2C#N)CC1
    -3%	-2%
- CC(Sc1ncc(C#N)c(N)n1)C(=O)Nc1ccccc1 (stereo not drawn)
    i	u
- Nc1nc(N)c2cc(S(=O)(=O)c3cccc(C(F)(F)F)c3)ccc2n1
    -28%	u
- Cc1cc(=O)[nH]c(SCC(=O)c2ccc(C)c(C)c2)n1
    -23%[1.46 µM]	-12%
- C=CCn1c(SCC(=O)N(C)C2CCS(=O)(=O)C2)nnc1-c1ccncc1 (stereo not drawn)
    x	1%
- O=C1CN(C(=O)COC(=O)c2cccc(S(=O)(=O)NCc3ccccc3)c2)c2ccccc2N1
    -23%	-10%
- O=C(CSc1ccc(-c2ccco2)nn1)NCc1ccccc1
    -17%	-2%
- CCCc1cc(C(=O)Nc2ccccc2SC)no1
    i	-5%
- CCOC(=O)c1nc2sc(C)c(C)c2c(=O)[nH]1
    -14%	-6%
- CC(SC1=Nc2ccccc2C2CC=NN12)C(=O)NC1(C#N)CCCCC1 (stereo not drawn)
    i	-9%
- Cc1ccc(C)c(CN2C(=O)C3(c4ccccc42)N(c2ccc(Cl)cc2)C(=O)CS3(=O)=O)c1 (stereo not drawn)
    0%	-3%
- CC(C)CC1(C)NC(=O)N(Cc2cc([N+](=O)[O-])cc3c2OCOC3)C1=O (stereo not drawn)
    i	-5%
- CCOc1ccc(C2=[N+]([O-])C(C)(C)N(O)C2(C)C)cc1
    -12%	-5%
- Cc1ccc(NC(=O)C2CC2)cc1S(=O)(=O)N1CCOCC1
    -6%	7%
- O=C1CCC[C@@H]2C[C@@]3(C[C@@H]4CCN1[C@H]24)Nc1cc(Cl)ccc1NC3=NC1CCCCC1
    -13%&-1%	-22%&-21%
- CC1CCCCN1S(=O)(=O)c1ccc(C(=O)Nc2nnc(-c3ccccn3)o2)cc1 (stereo not drawn)
    -12%	-15%
- CC(=O)c1c(-c2ccccc2)[nH]c2ccccc12
    u	-27%
- CCCCC(=O)Nc1cc(-c2nc3cccnc3s2)ccc1C
    -3%	-9%
- COc1ccc(N2CCN(Cc3cc4c(cc3Br)OCCO4)CC2)cc1
    -7%	-7%
- O=C(NCCc1ccc(Cl)cc1)C1CCCO1 (stereo not drawn)
    i	-14%
- CN(CC(=O)Nc1ccc(N2CCOCC2)cc1)CC(=O)Nc1ccc(C(F)(F)F)cc1
    -15%	-8%
- O=C(COC(=O)c1ccccc1)NC12CC3CC(CC(C3)C1)C2
    -14%	-2%
- Cn1c(=O)c([N+](=O)[O-])c(NCCc2ccccc2)c2ccccc21
    -20%	-6%
- CCOc1ccc(CCNC(=O)c2cnc3sc(N4CCCCC4)nn3c2=O)cc1
    -7%	-1%
- Cc1cc(C)n2c(Nc3c(C)cccc3C)c(-c3cccnc3)nc2n1
    -7%	2%
- CCCCCCN1C[C@H](n2cc(C3CC3)nn2)[C@@H](O)C[C@@H]1c1ccc(C)cc1
    -28%	u
- O=C(CN1C(=O)NC2(CCCCC2)C1=O)N1CCN(C(=O)c2cccs2)CC1
    -14%	-3%
- COc1ccc(NC(=O)CSc2nnc(-c3ccccc3)n2N)cc1
    -21%	-22%
- O=C(Nc1ccc(N2CCOCC2)cc1)Nc1ccc2nsnc2c1
    -9%	-13%
- COc1ccc(-n2c(C)nn(CC3CC3)c2=O)cc1
    5%	-1%
- Cc1[nH]c(=O)[nH]c(=O)c1S(=O)(=O)N1CCCC(C(=O)NCc2ccco2)C1 (stereo not drawn)
    x	2%
- CCOC(=O)C1(C)CCCN1C(=O)c1ccccc1OC (stereo not drawn)
    7%	0%
- CN(C(=O)CC(=O)Nc1ccc(Cl)c(Cl)c1)c1ccccc1
    -13%	-14%
